Compound activity deposited in PubChem by several laboratories.
HIV Env fusion = inhibitors of HIV Env-mediated cell fusion; HeLa-JRFL Env/CEM21 cell fusion, luciferase; inhibition, % at 12.3 µM; 360,000 compounds, 1.1% hits;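 active = mean replicate inhibition score of at least 50 and every replicate individually at or above 50; inconclusive = only one of the two criteria met; inactive = mean below 50 and not all replicates reaching 50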;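 also: 0% = plate neutral controls and 100% = maraviroc near 300 nM; one replicate is shown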
eIF4H FP inh = inhibitors of RNA binding by human eIF4H. inhibition, % at 35 µM. eIF4H fluorescence polarization binding assay. 290,000 compounds, 0.94% hits. Q15056. AID 2012;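 active = 50% or more with normal probe brightness, or confirmed in later tests; inconclusive = above 50% with abnormal brightness, or retests that disagree; inactive = below 50% or failed in later tests; about a fifth of its hits are not listed in these tables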;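 also: calls also rest on retests at 20 µM and on dose response follow-up; 0% = protein and probe with vehicle and 100% = probe without protein; strong numbers were not always called active; many hits fall short of the cut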
Yeast UUG start = modulators of start codon recognition fidelity in yeast; 350,000 compounds, 0.13% hits; AID 602363; S. cerevisiae UUG-firefly luciferase reporter, luminescence/redox ratio; activity score, % at 18.7 µM;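 active = replicate mean at a twofold rise or more, about +100% in these data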;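 also: firefly luciferase made from a UUG start codon reports start codon fidelity; reporter light over untreated wells divided by growth signal over untreated wells; some hits fall short of that in this replicate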
Rce1 inhib = blocks yeast Ras-converting enzyme; Q03530; yeast membranes, quenched prenylated peptide cleavage fluorescence; 290,000 compounds, 0.27% hits; calls only;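 active = fall in fluorescence gain of 50% or more versus controls, with final raw signal at or below 3038400; inconclusive = same 50% fall but final raw signal above 3038400; inactive = fall in fluorescence gain under 50%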;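 also: plate controls were neutral control wells for no effect and wells lacking membranes for full effect; tested at 10 µM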
Target sequence (Q03530 whole entry, looked up): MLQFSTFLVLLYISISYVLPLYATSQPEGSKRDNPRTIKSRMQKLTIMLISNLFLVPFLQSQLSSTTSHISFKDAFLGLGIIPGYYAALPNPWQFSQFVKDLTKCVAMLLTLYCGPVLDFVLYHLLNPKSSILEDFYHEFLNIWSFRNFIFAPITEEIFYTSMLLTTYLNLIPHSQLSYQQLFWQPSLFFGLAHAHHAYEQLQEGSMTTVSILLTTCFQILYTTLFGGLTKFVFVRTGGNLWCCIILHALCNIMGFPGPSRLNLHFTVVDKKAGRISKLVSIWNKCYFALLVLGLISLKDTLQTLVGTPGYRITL
CSC inhib = cancer stem cell inhibition | AID 2717 | cancer stem cell-like cells viability, luminescence | inhibition, % at 7.5 µM | 300,000 compounds, 1.1% hits;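 active = mean at 75% or more and at least half the replicates too; inconclusive = mean and replicates disagree; tested in HMLE shEcad cells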;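 also: 0% = median of negative and 100% = median of positive control wells; the first replicate is given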
PABP FP inh = blocks human PABP binding to poly(A) RNA | P11940 | fluorescence polarization | inhibition, % at 35 µM | 290,000 compounds, 1% hits;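 active = 50% or more with normal probe brightness, or confirmed in later tests; inconclusive = above 50% with abnormal brightness, or retests that disagree; inactive = below 50% or failed in later tests; about a fifth of its hits are not listed in these tables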;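 also: calls also rest on retests at 20 µM and on dose response follow-up; controls were probe without protein and protein plus probe with vehicle; some compounds called inactive have numbers as strong as hits; many hits fall short of the cut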
MT1-MMP act inh = inhibitors of human MT1-MMP activation; P50281; HT1080 RFP-PRO-GFP cells, GFP/RFP ratio fluorescence, overnight; percent of plate control window, DMSO zero; GFP/RFP ratio change, % at 20 µM; 360,000 compounds, 0.061% hits; AID 651647;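 active = GFP/RFP ratio change of at least 30% with cell ATP level not reduced by more than half and red fluorescence within 50% of control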; also: strong numbers were not always called active
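system = RFP-PRO-GFP reporter HT1080 cells | dosing = 20 µM single dose, 1% DMSO | timing = overnight cell settling, then overnight compound exposure, 37 °C, 5% CO2 | read-out basis = GFP/RFP fluorescence ratio | controls = DMSO and RFP-L50D-GFP cell wells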
MT1-MMP act inh RFP = further read-out of MT1-MMP act inh, marked with its call; RFP signal change, %; measured here: RFP expression control read;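 0 = vehicle wells; hits needed this value within 50% of zero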
* = called active by the depositor; i = inactive; ? = inconclusive; · = no result given.

SMILES | HIV Env fusion | eIF4H FP inh | Yeast UUG start | Rce1 inhib | CSC inhib | PABP FP inh | MT1-MMP act inh | MT1-MMP act inh RFP
COc1ccc(N2C(=O)CSCC2=O)cc1OC | 11 | 10 | · | i | -1 | 3 | -1 | -1
COc1cccc(CN(C)C(=O)CNC(=O)c2ccc(-c3ccccc3)cc2)c1OC | 45 | 11 | 0 | i | 24 | 2 | -2 | -30
CCOC(=O)c1nc2cc3n(c(C)c-2c1C)C(C)C(C)=C3C (stereo not given) | · | 12 | -17 | ? | 17 | -4 | 0 | -1
COc1cccc(C(=O)NC(=S)N2CCN(c3ccc(C(F)(F)F)cc3[N+](=O)[O-])CC2)c1 | 9 | 4 | -4 | i | -8 | -1 | 9 | -1
CCc1ccccc1NC(=S)N(Cc1cccnc1)Cc1ccco1 | · | -7 | · | i | -2 | 8 | -2 | 1
Cc1cc(C)cc(NC(=O)c2cccc3c2C(=O)N(C2CCCCC2)C3)c1 | · | · | -3 | i | -23 | · | -2 | -1
CCOc1ccc(N2C(=O)S/C(=C\c3ccc(O)c(OC)c3)C2=O)cc1 | 0 | -1 | · | · | 57 | 5 | -4 | 2
Cc1ccc(NC(=S)N2CCN(S(C)(=O)=O)CC2)cc1 | -6 | -1 | -25 | i | -3 | -3 | 2 | 3
CC(NC(=O)CN1C(=O)NC2(CCCCC2)C1=O)c1ccc(S(N)(=O)=O)cc1 (stereo not given) | -51 | · | -9 | · | · | · | -2 | -1
CC(=O)N1CCN(c2ccc(N=Cc3c(O)n(Cc4ccccc4)c(=O)[nH]c3=O)cc2)CC1 | · | -1 | · | i | · | 18 | -3 | -5
CCOC(=O)c1c(C(=O)OCC)c(C)n(CCc2ccc(OC)c(OC)c2)c1C | 19 | 1 | -12 | i | -17 | -7 | -3 | -3
CC1=C(C(=O)Nc2ccc(F)cc2)C(c2ccc(C)o2)C2=C(CC(C)(C)CC2=O)N1 (stereo not given) | · | 0 | -8 | i | · | 3 | 4 | 1
Cc1c(C(=O)N2CCCCC2)c(S(=O)(=O)Nc2ccc(F)cc2F)c(C)n1C | 14 | -8 | -5 | i | -2 | 2 | -2 | 2
COc1ccc(CCCc2n[nH]c(=S)n2C)cc1C | 3 | 0 | -14 | i | · | -2 | 1 | -4
CC(C)Sc1cc(N2CCOCC2)nc(-c2ccc(Cl)cc2)n1 | · | -1 | -22 | i | -2 | 5 | -7 | 0
N#Cc1c(-c2ccccc2)nc2n1CCS2 | -10 | -5 | · | i | -2 | -2 | 4 | 9
Cc1ccc(-c2nnn3c2nc(NCCc2ccc(S(N)(=O)=O)cc2)c2ccccc23)cc1 | -220 | 8 | -9 | i | -2 | 7 | 3 | 1
C/C(=N/N=C/c1ccccc1O)c1ccccc1O | -67 | -2 | -12 | i | -9 | 7 | 2 | -2
CCC(Sc1nc(N)c(NC(=O)c2ccc(OC)cc2)c(=O)[nH]1)C(=O)O (stereo not given) | 9 | 5 | -12 | i | · | -16 | 4 | 2
COc1ccccc1CCNC(=O)c1ccoc1C | -7 | -10 | -10 | · | -4 | 1 | -5 | 1
COc1ccc2cc(C(N)=O)c(=Nc3ccccc3)oc2c1 | 4 | 8 | · | i | 20 | 13 | -9 | -7
O=c1[nH]c(CN(CCc2ccccc2)S(=O)(=O)c2ccc(Cl)cc2)nc2ccccc12 | · | -14 | · | i | -10 | 5 | -1 | -1
Cc1ccc(S(=O)(=O)NCCS(=O)(=O)N2CCN(c3ccccc3)CC2)cc1 | 5 | -10 | -11 | i | -6 | 3 | · | ·
O=C(CNC(=O)c1ccco1)OCc1ccc(Br)cc1 | · | -5 | -8 | i | 5 | 8 | 0 | 6
COc1ccc(CCNc2oc(-c3ccco3)nc2C#N)cc1 | -37 | -2 | -1 | i | -7 | -7 | -1 | -1
O=C(C1CC1)N1CCC(Oc2cccc(C(=O)N3CCCCC3CCO)c2)CC1 (stereo not given) | -3 | -14 | -14 | i | 6 | 4 | 7 | 6
CCCCn1c(N)c(N(CCC(C)C)C(=O)C2CCCN(C(=O)c3ccc(Cl)cc3)C2)c(=O)[nH]c1=O (stereo not given) | · | · | · | i | -7 | · | 1 | 3
CN(C(=O)CSc1nnc(NCc2ccccc2)s1)C1CCS(=O)(=O)C1 (stereo not given) | 11 | 2 | · | i | 1 | 0 | 1 | 3
CC(C)n1ncc2c(C(=O)NCc3ccccc3CN(C)C)cc(C3CC3)nc21 | -9 | · | 6 | · | · | · | 1 | 0
O=C(COC(=O)COc1ccc(Cl)cc1Br)NC1CCCC1 | 15 | · | -16 | · | · | · | -2 | -3
Cc1ccccc1OCc1nnc(SCC(=O)NCc2ccccc2)n1C | -33 | -6 | -3 | i | -8 | -4 | 5 | 6
COc1cc(N)c(Br)cc1C(=O)O | -5 | 5 | -8 | i | -1 | 4 | -3 | 4
O=C1CC(CCC(=O)NC2CC2)c2ccccc2N1 (stereo not given) | -21 | -13 | 9 | i | -8 | 4 | 3 | 1
Cc1cc2n(n1)C(c1ccc(N(C)C)cc1)Nc1ccccc1-2 (stereo not given) | -51 | -1 | -23 | i | · | 13 | 0 | -2
Cc1cccc(C)c1NC(=O)N1CC=C(n2c(=O)[nH]c3ccccc32)CC1 | · | -8 | 5 | i | -42 | -11 | 1 | 1
CN(C)C1=NC(=O)/C(=C\c2ccccc2)S1 | -17 | 2 | · | i | 5 | -21 | 5 | 2
Cc1nn(Cc2ccccc2)c2c1C(c1ccncc1)C(C#N)=C(N)O2 (stereo not given) | · | 11 | · | i | 5 | 0 | · | ·
Cc1nc(C(=O)O)cc2c1[nH]c1ccccc12 | · | · | -34 | i | -11 | · | 0 | 2
CCOc1ccc(OCC(=O)OC(C)C(=O)NC2CCCC2)cc1 (stereo not given) | · | · | -17 | · | -16 | · | 1 | 4
Cc1ccc(C(=O)Nc2ccc(S(=O)(=O)N3CCN(C)CC3)cc2)o1 | · | -4 | 0 | i | -10 | 11 | 4 | 2

Reprinted from the part before: four entries, then new ones.
SMILES | HIV Env fusion | eIF4H FP inh | Yeast UUG start | Rce1 inhib | CSC inhib | PABP FP inh | MT1-MMP act inh | MT1-MMP act inh RFP
Cc1nn(Cc2ccccc2)c2c1C(c1ccncc1)C(C#N)=C(N)O2 (stereo not given) | · | 11 | · | i | 5 | 0 | · | ·
Cc1nc(C(=O)O)cc2c1[nH]c1ccccc12 | · | · | -34 | i | -11 | · | 0 | 2
CCOc1ccc(OCC(=O)OC(C)C(=O)NC2CCCC2)cc1 (stereo not given) | · | · | -17 | · | -16 | · | 1 | 4
Cc1ccc(C(=O)Nc2ccc(S(=O)(=O)N3CCN(C)CC3)cc2)o1 | · | -4 | 0 | i | -10 | 11 | 4 | 2
COc1ccc(C2c3ccc4ccccc4c3Oc3ncn(CCN(C)C)c(=N)c32)cc1 (stereo not given) | 3 | 1 | -11 | i | 16 | 0 | -4 | -5
CN(C(=O)Nc1cnc2ccccc2c1)c1ccccc1 | -8 | 7 | -14 | i | -8 | -6 | 2 | 5
CCCc1nc2sc3c(c2c(=O)n1N)CCC3 | · | -2 | -9 | i | -15 | -13 | 5 | 3
COc1ccc(S(=O)(=O)N2CCC(C(=O)NCc3ccncc3)CC2)cc1Cl | -21 | -6 | -32 | i | 12 | -5 | 1 | 1
CCC(Cc1ccccc1)NC(=O)C1=C(C)C(=O)OC12CCC(C)CC2 (stereo not given) | 4 | 17 | -22 | i | -6 | 12 | 0 | -1
Cc1nn(Cc2ccc(C(=O)NN)cc2)c(C)c1Cl | 9 | 11 | · | i | -4 | -1 | 0 | 3
CCNc1nc(NCC)nc(OCCOC(=O)Nc2ccccc2)n1 | 24 | 9 | -11 | i | · | 0 | 1 | 4
O=C(NCc1ccc(F)cc1)c1cc(C2CCCCN2S(=O)(=O)c2cccs2)on1 (stereo not given) | 40 | · | -28 | · | · | · | -3 | -7
O=C(O)c1ccccc1C(=O)NCc1cccnc1 | · | -4 | 6 | i | -16 | -3 | 3 | 5
Cc1ccc(F)cc1NC(=O)COC(=O)COc1ccc(C#N)cc1 | 11 | · | 2 | i | -11 | · | -1 | 1
COc1ccc(NC(=O)C(OC(=O)c2cnc(C)cn2)c2ccccc2)cc1Cl (stereo not given) | ? | · | · | i | -4 | · | 2 | 4
Cn1c(Cc2cccs2)nnc1SCc1nc2ccccc2[nH]1 | · | -7 | -25 | i | 0 | 2 | 4 | 4
O=c1[nH][nH]c2cc(=O)n(-c3cccc(C(F)(F)F)c3)nc12 | -19 | 20 | · | i | 0 | 20 | 7 | -1
Cc1ccc(N(C(=O)c2csnn2)C(C(=O)NC(C)(C)C)c2cccnc2)cc1 (stereo not given) | 6 | -5 | · | i | 1 | 0 | -1 | 6
c1ccc(CN2CCN(c3nc(-c4ccccc4)nc(-n4ccnc4)n3)CC2)cc1 | · | 9 | -16 | i | 42 | -3 | -11 | -8
CCOC(=O)CN(C(=O)COc1nc(-c2ccccc2)cc(C)c1C#N)c1ccc(C)cc1 | -4 | 20 | · | i | 22 | 38 | -37 | -33
O=C(Nc1ccccc1)c1cccc(=O)o1 | -5 | 0 | · | i | 5 | 0 | 3 | 3
O=C1CSC(=O)N1CC(O)COc1ccc(Cl)cc1 (stereo not given) | · | -12 | · | i | 11 | -2 | 2 | 3
Cc1nc(C)c(-c2csc(N)n2)s1 | 0 | 1 | -12 | i | -2 | -3 | -1 | -2
COc1ccc(NC(=O)CN2CCN(S(=O)(=O)N(C)C)CC2)cc1 | 9 | -6 | -4 | i | -2 | 3 | 2 | 5
COC(=O)c1c(C(=O)OC)c(C)n(Cc2cccnc2)c1C | · | 2 | 7 | i | -1 | -3 | 4 | 8
COc1ccc(NC(=O)Nc2sc(NS(=O)(=O)c3ccccc3)nc2C)cc1 | -20 | -4 | · | i | -10 | 21 | · | ·
CN(C)S(=O)(=O)c1ccc(Cl)c(NC(=O)COC(=O)CN2C(=O)NC(C)(C)C2=O)c1 | 18 | -1 | -15 | i | · | 4 | -5 | 0
c1ccc(CCn2nnc3ccccc32)cc1 | -19 | 3 | · | i | 12 | 10 | -4 | -4
Cc1nc(-c2ccc(F)cc2)c(CC(=O)N2CCN(S(=O)(=O)c3cccc(F)c3)CC2)s1 | -86 | · | · | i | 2 | · | -3 | 0
c1ccc(C2CN3CCSC3=N2)cc1 (stereo not given) | -141 | -3 | -7 | i | -7 | 3 | 1 | 1
Cc1c(Cl)c([N+](=O)[O-])nn1CC(=O)NCCCN1CCOCC1 | 3 | -2 | -9 | i | · | 0 | -2 | 2
COc1ccccc1C(=O)Nn1c(C)nc2ccccc2c1=O | -5 | -7 | -4 | i | -8 | -3 | 1 | -1
NS(=O)(=O)c1ccc(CNC(=O)c2ccc(Cl)cc2[N+](=O)[O-])cc1 | 4 | -8 | · | i | -6 | 3 | 3 | 3
COc1ccc(Cn2c(C)nc([N+](=O)[O-])c2SCC(=O)O)cc1[N+](=O)[O-] | 3 | 4 | · | i | 15 | -1 | 2 | 0
COc1ccc(NC(=S)NNC(=O)c2cccnc2)cc1OC | -8 | -5 | · | i | -17 | 11 | 1 | 5
COc1cnn(-c2ccccc2)c(=O)c1N(C)C | -43 | -9 | -6 | i | -7 | 14 | 7 | 6
NC(=O)c1ccc(N2CCN(S(=O)(=O)c3cccs3)CC2)c([N+](=O)[O-])c1 | 8 | · | -8 | · | -3 | · | -3 | -28
O=C(CCc1ccccc1)NCCCN1CCOCC1 | -30 | 6 | -4 | i | -14 | 2 | 7 | 2
